NPYLR7 agonist: mosquito NPYLR7 agonism | activation, % at 10 µM | 0.15% of 270,000 active | HEK293T NPYLR7/Galpha15, GCaMP6s calcium fluorescence | AID 1259423; in the data active means activation above about 40%;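 further: 0% = vehicle and 100% = reference agonist at the receptor; some compounds past the cut are filed as inactive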
NPYLR7 agonist max-min: further read-out of NPYLR7 agonist, marked with its call; activation, %; measured here: Max-Min RFU normalised activation; some inactives read as strong as hits;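 span of the calcium signal over five minutes; 0% = vehicle and 100% = native peptide agonist; compound fluorescence can raise it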
An asterisk follows results filed as active.

SMILES | NPYLR7 agonist | NPYLR7 agonist max-min
CCOc1ccccc1C(=O)N1CCC(c2c[nH]c3ccccc23)CC1 | 19 | 30
CCn1nnc2c(Nc3ccc(Cl)c(Cl)c3)ncnc21 | 8 | 14
CCCCNC(=O)N(Cc1ccc(OS(=O)(=O)CC)cc1)CC(C)C | 8 | 8
COc1cccc(C(CC(=O)N2CCC3(CC2)OCCO3)c2c[nH]c3ccccc23)c1OC (configuration not stated) | 9 | 18
CCCN(Cc1c(C)nn(-c2ccccc2)c1N1CCN(C)CC1)S(C)(=O)=O | -11 | 3
Nc1ncc(-c2ccc(C(=O)c3ccccc3)cc2)cc1-c1ccccc1F | -6 | -10
COc1cccc(CNC(=O)CN(C)CCOc2ccc(O)cc2)c1 | -10 | -11
CC(=O)Nc1cc2c(s1)C1(CCCCC1)CC(=O)N2 | -6 | -7
Cc1cnc(CNC(=O)c2ccccc2C2CCNC2)cn1 (configuration not stated) | 11 | 9
COc1cc(/C=C/CN2CCC(C(=O)NC(c3ccc(Cl)cc3)c3cnccn3)CC2)ccc1OC(C)=O (configuration not stated) | 10 | 6
COc1ccc(C(=O)N2CCCC(C(=O)c3cccs3)C2)c(O)c1 (configuration not stated) | 19 | 0
Cc1nn(-c2ccccn2)c(C)c1[C@@H]1C=C[C@@H](NC(=O)N2CCOCC2)C1 | -8 | -16
COCCCN(C)C(=O)C(c1ccccc1)N1CCc2ccccc21 (configuration not stated) | 0 | 0
CCCc1c(C)nn(-c2ccc(C(=O)N(CC(C)C)CC(C)C)cc2)c1C | 1 | -1
CCN(CC)CCNC(=O)C1CCN(C(=O)Nc2nccs2)CC1 | -7 | -8

Some of these compounds in order of SMILES length, rising:
SMILES | NPYLR7 agonist | NPYLR7 agonist max-min
Cc1cnc(CNC(=O)c2ccccc2C2CCNC2)cn1 (configuration not stated) | 11 | 9
CCn1nnc2c(Nc3ccc(Cl)c(Cl)c3)ncnc21 | 8 | 14
CC(=O)Nc1cc2c(s1)C1(CCCCC1)CC(=O)N2 | -6 | -7
COc1cccc(CNC(=O)CN(C)CCOc2ccc(O)cc2)c1 | -10 | -11
CCCCNC(=O)N(Cc1ccc(OS(=O)(=O)CC)cc1)CC(C)C | 8 | 8
Nc1ncc(-c2ccc(C(=O)c3ccccc3)cc2)cc1-c1ccccc1F | -6 | -10
CCCc1c(C)nn(-c2ccc(C(=O)N(CC(C)C)CC(C)C)cc2)c1C | 1 | -1
CCCN(Cc1c(C)nn(-c2ccccc2)c1N1CCN(C)CC1)S(C)(=O)=O | -11 | 3
COc1cccc(C(CC(=O)N2CCC3(CC2)OCCO3)c2c[nH]c3ccccc23)c1OC (configuration not stated) | 9 | 18
Cc1nn(-c2ccccn2)c(C)c1[C@@H]1C=C[C@@H](NC(=O)N2CCOCC2)C1 | -8 | -16
COc1cc(/C=C/CN2CCC(C(=O)NC(c3ccc(Cl)cc3)c3cnccn3)CC2)ccc1OC(C)=O (configuration not stated) | 10 | 6

(list continues)
SMILES | NPYLR7 agonist | NPYLR7 agonist max-min
CCOc1ccc(N2C(=O)CSC2c2cccc(NS(=O)(=O)c3ccc(Br)cc3)c2)cc1 (configuration not stated) | 19 | 16
COc1ccc(CNC(=O)c2cn(C)c3c(=O)n(-c4ccc(C)cc4)c(=O)[nH]c23)cc1 | 5 | 3
Cc1csc(SCC(=O)c2c(N)n(C3CC3)c(=O)[nH]c2=O)n1 | 2 | 1
Cc1cc(=O)c(C(=O)N2CCCC(C)C2)c(CCc2ccccc2)n1Cc1ccncc1 (configuration not stated) | 11 | 4
CCOc1ccc(CN2CC[C@@H](c3ccc(F)cc3)[C@H](O)C2)cn1 | 6 | 5
N#Cc1ccccc1S(=O)(=O)NCc1ccc(Cn2cccn2)cc1 | 4 | 3
COc1ccc(S(=O)(=O)Oc2cc(CN(CC(C)C)C(=O)C(C)C)ccc2OC)cc1 | -8 | -1
CC1(C(=O)NS(C)(=O)=O)CCN1C(=O)Cc1cc(F)ccc1F (configuration not stated) | 2 | 2
CN(C)c1ncccc1C(=O)NCCc1ccccc1 | 2 | 2
COc1ccc(C(=O)N2CCC[C@@H]2C(=O)NCCNC(=O)c2ccc(F)cc2)c(OC)c1 | 17 | 19
COc1ccccc1N1CCN(c2ccc(NC(=O)c3cccc(C(F)(F)F)c3)cc2C(=O)NC(C)c2ccccc2)CC1 (configuration not stated) | 10 | 8
O=C(NN1C(=O)C2C3C=CC(C4CC34)C2C1=O)c1cccc(Cl)c1 (configuration not stated) | 6 | 4
CC1CCC(C(C)C)C(O[C@H]2C=CC(=O)O2)C1 (some centres not stated) | 4 | 5
O=C(O)c1ccc(N2N=C(c3ccc(Cl)cc3)CC2c2ccccc2)cc1 (configuration not stated) | -6 | -11
Cc1ccc(-n2nc(C(=O)O)c(=O)n(Cc3ccccc3F)c2=O)cc1Cl | 19 | 29
CN(Cc1ccno1)C(=O)c1cccc(CC2CCNCC2)c1 | 4 | 1
Cc1c(C(=O)N2CCN(C(=O)CCl)CC2)cc(-c2ccc(Cl)cc2)n1-c1cccc(F)c1 | -10 | -12
COc1ccc(-c2ccc(OCCNS(=O)(=O)c3ccccc3C(F)(F)F)nn2)cc1 | -11 | -18
COCc1nc(N2CCN(C(=O)COCc3ccccc3)CC2)c2c3c(sc2n1)CCCC3 | -11 | -5
CSc1ccc(NC(=O)N(CC(=O)Nc2c(-c3ccccc3)c(C)nn2-c2ccc(C)cc2)C(C)C)cc1 | -2 | 4
CSc1ccc(-c2sc(-c3cccs3)nc2C)nn1 | -4 | -7
Cc1cccc2c1NC1(CCN(C(=O)Nc3ccc(Cl)c(Cl)c3)CC1)NC2=O | 7 | 14
CC1CN(c2ccc(NC(=O)N(C)Cc3ccco3)cc2)CC(C)O1 (configuration not stated) | 4 | 4
O=C1/C(=C/c2ccc(Cl)cc2)C=C(c2ccccc2)N1c1ccccc1Br | 1 | 3
CCN(Cc1nccn1C)C(=O)c1ccc(N(C)Cc2cc(C)no2)nc1 | 3 | -3
COc1cc(/C=C2/C=c3ccccc3=C2O)cc(Cl)c1OC | 6 | 4
CCOC(=O)c1c(NC(=O)C(Cl)(Cl)Cl)c(-c2cccc(F)c2)cn1C | -13 | -11
O=S(=O)(NCc1ccccc1)NCC(CO)Cc1ccsc1 (configuration not stated) | -4 | -5
Cc1cc(C(F)(F)F)cc(-c2cccc(O)c2)n1 | 2 | 3
COCc1cnc2c(c1SCc1cc(OC)cc(OC)c1)c(=O)n(C)c(=O)n2C | 7 | 11
CCCCCn1c(CN2CCOCC2)nc2c1c(=O)[nH]c(=O)n2C | -8 | -9
CCc1ccc(-c2nccn2Cc2c(C)nn(CC)c2C)o1 | 3 | 1
CC(C)(C)OC(=O)N1CCSCC1CC(=O)O (configuration not stated) | 6 | 4
O=C(c1ccc[nH]c1=O)N1CCCC(CCc2cccc(C(F)(F)F)c2)C1 (configuration not stated) | 0 | -9
Cc1noc(C)c1Cn1c(C)c(C(=O)NCCC#N)sc1=O | 10 | 2
C=CC(C)(O)CN1CCN(Cc2nc(C(=O)N3CCN(c4ccc(F)cc4)CC3)co2)CC1 (configuration not stated) | 7 | 5
CCN(C/C=C/c1ccccc1)C(=O)c1cc(CN2CCC(O)CC2)on1 | -1 | -7
COc1ccsc1C(=O)N(C)C1CCN(C2CCOCC2)CC1 | 5 | 4
CC(=O)Nc1ccc(C(=O)N2CCOC(c3ccccc3)C2)cc1 (configuration not stated) | -2 | 3
Cc1cccc(-c2cc(N)n(-c3ccc(C(=O)NCCCCc4ccccc4)cc3)n2)c1 | -4 | -6
O=c1[nH]c(CNc2nccc(CCC(F)(F)F)n2)nc2ccccc12 | 23 | 12
CCOc1cc(N2CCOCC2)c(OCC)cc1NC(=O)C(C)Sc1nnc(NC(C)C)s1 (configuration not stated) | 3 | 2
O=[N+]([O-])c1ccccc1CN1CCCn2cccc2C1c1ccc(Cl)c(Cl)c1 (configuration not stated) | -4 | 9
Cn1c2c(c3ccccc31)C[C@@H]1C[C@H]2[C@@H](O)CN1C(=O)c1cc2ccccc2s1 | 17 | 28
CC(=O)NC(C(=O)N(C)Cc1nc2ccccc2s1)C(C)C (configuration not stated) | 1 | 0

A second format for two compounds above.
Cc1noc(C)c1Cn1c(C)c(C(=O)NCCC#N)sc1=O
  NPYLR7 agonist = 10; NPYLR7 agonist max-min = 2

C=CC(C)(O)CN1CCN(Cc2nc(C(=O)N3CCN(c4ccc(F)cc4)CC3)co2)CC1 (configuration not stated)
  NPYLR7 agonist = 7; NPYLR7 agonist max-min = 5

The listing continues:
SMILES | NPYLR7 agonist | NPYLR7 agonist max-min
Cc1cc2ncn(CC(O)Cn3cnc4sc(C)c(C)c4c3=O)c2cc1C (configuration not stated) | 8 | 5
Cn1cc(-c2ccncc2)c(-c2ccc(OCc3ccc4ccccc4n3)cc2)n1 | -1 | -6
C=C(C)CN1CCN(c2nc3c(c(=O)[nH]c(=O)n3C)n2Cc2ccc(Br)cc2)CC1 | 5 | 3
C=CCN(Cc1ccccc1OC)C(=O)c1ccc(NC(C)=O)cc1 | -5 | -10
CC(Oc1ccc(N(C)C(N)=O)cc1)c1nnc(-c2cccs2)o1 (configuration not stated) | 3 | -1
CCOCCn1c(=NC(=O)CCS(=O)(=O)c2ccccc2)sc2cc(F)ccc21 | 4 | 1
O=C(c1ccn[nH]1)N1CCN(c2nccc(C(F)(F)F)n2)CC1 | 10 | 5
C=C(C)Cn1c(N2CCN(Cc3cc(C)ccc3C)CC2)nc2c1c(=O)[nH]c(=O)n2C | 0 | 2
COc1ccc2c(c1)C1(SCCN1C(=O)C1CCC1)C(=O)N2Cc1cccc(C#N)c1 (configuration not stated) | -2 | 12
CCCCN(Cc1cccn1Cc1ccc(Br)cc1)C(=O)CN(CCOC)C(=O)C(C)(C)CCl | -8 | -8
COc1ccc(CC2CCN(C(=O)c3ccccc3OC(F)(F)F)CC2)cc1 | 21 | 8
CC(=O)Oc1ccc(/C=C2\N=C(c3ccco3)OC2=O)cc1 | -6 | -1
Cc1[nH]cnc1-c1nccn1-c1ccc(Cl)cc1 | 0 | 0
Cc1ccsc1CN(Cc1ccc(F)cc1)C(=O)CN(CCN1CCOCC1)C(=O)CCC1CCCC1 | -3 | 9
Cc1nc(C23CC4CC(CC(C4)C2)C3)cs1 | -1 | -4
CCCOc1cc(Nc2ccc(NC(=O)CC)cc2)nc(C)n1 | 9 | -1
c1ccc(Oc2cccc(-c3ccc4nnc(-c5ccc6nccnc6c5)n4c3)c2)cc1 | 11 | 0
COc1ccc(-c2nnc(NC(=O)c3ccc([N+](=O)[O-])s3)o2)c(OC)c1 | -3 | -8
CC1(C)CC(=O)C(=C(O)c2ccccc2)C(=O)C1Cl (configuration not stated) | -11 | -18
CCOCCn1c(=NC(=O)c2cc(C)no2)sc2cc(NC(C)=O)ccc21 | 0 | 2
Cn1c(SCc2ccccc2C(F)(F)F)n[nH]c1=O | -5 | -6
O=C(NC1CCN(c2ccccc2C(=O)N2CCN(c3ccc(Cl)cc3)CC2)CC1)C1CCC1 | 0 | 5
O=C(NC1CCCc2ccccc21)c1ccccc1C(=O)N1CCCC1 (configuration not stated) | -6 | -7
Cc1noc(-c2ccc(OC(F)(F)F)cc2)c1C(=O)NCCC(c1ccccc1)c1ccccc1 | 20 | 14
COCCN(Cc1ccc(OS(=O)(=O)c2cccc(C(F)(F)F)c2)cc1)C(=O)c1cccc(OC)c1 | -3 | 1
COc1cc(CN2C(=O)C(C)(C)ON=C2c2ccc(F)cc2)cc(OC)c1 | -2 | -2
O=C(c1ncoc1-c1ccccc1)N(Cc1ccc2c(c1)OCO2)Cc1cccc2c1OCO2 | 21 | 12
CCCS(=O)(=O)CC(=O)Nc1ccc(Nc2ccccc2)nc1 | -7 | -8
COc1ccc(CNC(=O)c2sc(=O)n(CC(=O)N(C)C)c2C)cc1 | 14 | 6
COCCN(Cc1ccc(C(C)(C)C)cc1)Cc1cccn1Cc1cccc(C)c1 | 17 | 12
CCc1ccc2nc(N(Cc3cccnc3)C(=O)c3ccc([N+](=O)[O-])o3)sc2c1 | -10 | -3
CSc1cccc(CN(C(=O)C2CNCCO2)C(C)C)c1 (configuration not stated) | -4 | -7
CCc1nc2c(OCCN3C(=O)c4ccccc4C3=O)cccn2c1N(C)C(=O)c1ccc2c(c1)OCO2 | -19 | -2
Cc1cc(C)n(-c2ccc(C(=O)NCCSc3nnnn3C)cc2)n1 | -8 | -14
COc1ncccc1-c1ccc(S(N)(=O)=O)s1 | 20 | 2
Cc1nc(-c2ccccc2)sc1C(=O)NCCCn1nc(-c2ccccc2)ccc1=O | 3 | 1
O=C(N[C@@H](Cc1ccccc1)C(=O)CCl)OCc1ccccc1 | 4 | -5
CC1=NC2=C(C(=O)CC(c3ccccc3)C2)C(c2ccccc2OCc2ccccc2)C1C(=O)OC1CCCCC1 (configuration not stated) | -3 | -2
COc1ccc(N(C)C(=O)C2(c3cccc(C(F)(F)F)c3)CCCC2)cn1 | 1 | -4
COCCN(Cc1nc2scc(-c3cccc(Cl)c3)c2c(=O)[nH]1)CC(O)CN1CCOCC1 (configuration not stated) | 15 | 14
CCC(=O)Nc1ccc(N(C)C)c(CN(Cc2ccc(F)cc2)C(=O)Nc2cccc(F)c2)c1 | -9 | 1
COCc1ncc(CN2CCC(O)(c3ccccc3C)C2)cn1 (configuration not stated) | -3 | -3
Cc1cc(CS(=O)(=O)NCc2ccccc2Cl)on1 | -1 | 39
COC(=O)c1ccc(COC(CN2CCN(C(=O)c3c(C)noc3C)CC2)c2cccc(OC)c2)cc1 (configuration not stated) | -2 | -4
C=CCN(Cc1ccc(C)s1)C(=O)c1cccnc1NC | 12 | 13
Cc1ccc(-c2cc(C(=O)O)nc3c(-c4ccccc4)c(C)nn23)cc1 | -5 | 1
NCCc1nc(N2CCC(O)(CN3CCCC3)CC2)c2ccccc2n1 | 3 | 0
O=C(CCCOc1ccccc1)Nc1cc(-c2ccccc2)nn1-c1ccccc1Cl | 4 | 1
N#Cc1ccc(-n2ncc3c2CCN(CC(=O)N2CCN(c4ccccc4)CC2)C3)cc1 | 0 | 18
COc1ccc(C2CC(=O)C3=C(C2)N=C(C)C(C#N)C3c2cccc(F)c2)cc1 (configuration not stated) | -5 | -10

A portion of the library; the hit share may differ from the screen's.
